VDR inhibitor: inhibitors of human vitamin D receptor; VDR-SRC2-3 peptide fluorescence polarization, 2 h; hit rate 0.93% among 400,000; Potency, µM, inactives show max response, negative = inhibition, most hits filed as inhibitors; AID 504847; P11473; active = well fitted inhibition curve with a large enough effect; inconclusive = small, poorly fitted or top-dose-only effect, or another doubt; inactive = no such curve, though single readings can be large or run the other way; also: series mostly up to about 120 µM
Target sequence (P11473 whole entry, looked up): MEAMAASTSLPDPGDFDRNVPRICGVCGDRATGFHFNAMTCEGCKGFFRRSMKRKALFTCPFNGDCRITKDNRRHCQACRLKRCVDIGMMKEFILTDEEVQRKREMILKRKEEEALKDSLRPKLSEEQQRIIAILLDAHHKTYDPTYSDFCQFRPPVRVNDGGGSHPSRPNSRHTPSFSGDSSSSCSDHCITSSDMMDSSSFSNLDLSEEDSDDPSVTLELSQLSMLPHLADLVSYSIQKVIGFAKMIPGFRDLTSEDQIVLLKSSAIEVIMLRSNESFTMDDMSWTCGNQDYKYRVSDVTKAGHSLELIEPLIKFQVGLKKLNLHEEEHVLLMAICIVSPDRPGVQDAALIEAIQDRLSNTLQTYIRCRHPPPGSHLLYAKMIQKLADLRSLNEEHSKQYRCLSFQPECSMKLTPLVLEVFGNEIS
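Fluorescence polarization assay of small-molecule disruption of VDR binding to coregulator peptide SRC2-3. Compounds and controls pin-transferred, then read after 2 h incubation at ambient room temperature.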
An asterisk follows results filed as active; & = joins results of further samples. % is scaled to controls: 0 for no effect and ±100 for the full control effect; potency is read from the fitted curve at half-maximal effect. This is a subset; count on the stated rates, not on these rows.

What do the screens show for `Cc1nonc1C(=O)N/N=C/c1ccc(O)c(O)c1`?
VDR inhibitor: -10%

How did N#Cc1ncc(-c2ccc3c(c2)OCCOCCOCCOCCO3)nc1C#N do in these assays?
VDR inhibitor: -11%

What do the screens show for `S=c1[nH]cc(-c2ccccc2)n1-c1ccccc1Cl`?
VDR inhibitor: -9%

Results for O=C(CSc1nnc(CNC(=O)c2ccccc2)o1)Nc1ccc2c(c1)OCCO2 ?
VDR inhibitor: -6%

What do the screens show for `COC(=O)c1ccc(S(=O)(=O)NC(C)(C)C)n1C`?
VDR inhibitor: -20%

Results for O=S(=O)(c1ccc(F)cc1)N(Cc1nc(-c2ccc(Cl)cc2)no1)C1CCCCC1 ?
VDR inhibitor: 9%

Results for COC(=O)C1=C(C)N(CC(C)C)C(=O)/C1=C\c1cccs1 ?
VDR inhibitor: 8%

How did CCCC(=O)Nc1ccc(NC(=O)c2cccc(OC)c2)cn1 do in these assays?
VDR inhibitor: 7%

Results for c1ccc(C(c2ccccc2)N2CCN(c3ccc4ccccc4n3)CC2)cc1 ?
VDR inhibitor: 16%

How did COc1ccc(NC(=O)c2sc3nc(C)cc(C)c3c2N)c(OC)c1 do in these assays?
VDR inhibitor: -24%

Results for CC(=O)Nc1nc(C2COc3ccccc3O2)cs1 (configuration not stated) ?
VDR inhibitor: 9%

Results for COc1cc(C(=O)OCC(=O)N2CCCCCC2)c([N+](=O)[O-])cc1OC ?
VDR inhibitor: -1%

Results for CCNC(=S)NNC(=O)CCc1nc2cc(Cl)ccc2n(Cc2ccccc2)c1=O ?
VDR inhibitor: -8%

How did CCC(C)(C)n1nnnc1C(c1ccc2ncccc2c1)N1CCN(c2ccc(O)cc2)CC1 (configuration not stated) do in these assays?
VDR inhibitor: -9%

What do the screens show for `Cc1ccc(Cn2c(NS(=O)(=O)c3ccccc3)nc3ccccc32)cc1`?
VDR inhibitor: 1%

Results for Cc1[nH]c2ccccc2c1SCC(=O)NC1CCCCC1 ?
VDR inhibitor: 7%

Results for COc1ccc(S(=O)(=O)NCc2ccncc2)cc1NC(=O)c1ccccc1F ?
VDR inhibitor: -5%

What do the screens show for `Cc1cccc(-n2ncc3c(N4CCCc5ccccc54)ncnc32)c1`?
VDR inhibitor: -10%

How did CCOc1cc(/C=N/NC(=O)CSc2nnc(C)s2)ccc1OCc1ccccc1Cl do in these assays?
VDR inhibitor: -5%

Results for COc1ccc(S(=O)(=O)Cc2ccc(C(=O)N3CCc4ccccc4C3)o2)cc1 ?
VDR inhibitor: -9%

Results for COc1ccc(NC(=O)Cn2nc3c(cc2=O)CCCC3)cc1Cl ?
VDR inhibitor: 5%

How did COc1cccc(CN(C)CC(=O)Nc2cccc(S(N)(=O)=O)c2)c1OC do in these assays?
VDR inhibitor: -3%

Results for O=C(NC1CCCCC1)c1ccc(-c2cccc([N+](=O)[O-])c2)o1 ?
VDR inhibitor: 0%

What do the screens show for `COc1ccc(Cc2nnc(NC(=O)Cc3cccs3)s2)cc1OC`?
VDR inhibitor: -6%

What do the screens show for `COc1ccc(C(=O)N2CCN(c3cccc(C)c3C)CC2)cc1S(=O)(=O)NC1CC1`?
VDR inhibitor: -10%

How did O=C(COc1ccccc1C(=O)NCc1ccccc1)Nc1ccccc1 do in these assays?
VDR inhibitor: 11%

Results for CC(=O)NNc1ncnc2c1cnn2-c1ccccc1 ?
VDR inhibitor: 5%&14%

How did Cc1nc2ccc(NC(=O)c3cc([N+](=O)[O-])cc([N+](=O)[O-])c3Cl)cc2s1 do in these assays?
VDR inhibitor: inconclusive

Results for Cc1ccc(C2(C)NC(=O)N(CC(=O)NCCC3=CCCCC3)C2=O)cc1 (configuration not stated) ?
VDR inhibitor: 6%

How did O=c1cc(Nc2ccc3c(c2)OCCO3)[nH]c(=O)n1C1CCCCC1 do in these assays?
VDR inhibitor: -6%

Reprinted at random: 2 records from the list, in no set order.
How did O=C(COc1ccccc1C(=O)NCc1ccccc1)Nc1ccccc1 do in these assays?
VDR inhibitor: 11%

What do the screens show for `COc1ccc(C(=O)N2CCN(c3cccc(C)c3C)CC2)cc1S(=O)(=O)NC1CC1`?
VDR inhibitor: -10%

Continued:
What do the screens show for `CC(C)(C)c1ccc(C(=O)C2CCCN(C(=O)CN3CCCC3=O)C2)cc1` (configuration not stated)?
VDR inhibitor: 0%

What do the screens show for `CCOc1ccc(NC(=O)N(C(C)C)C2CCN(C(C)=O)CC2)cc1`?
VDR inhibitor: 10%

Results for CCC(Sc1ccccn1)C(=O)Nc1nnc(C)s1 (configuration not stated) ?
VDR inhibitor: -1%

How did COCCCNS(=O)(=O)c1cc2c3c(c1)C(C)C(=O)N3CCC2 (configuration not stated) do in these assays?
VDR inhibitor: -17%

Results for OC(COCC(F)(F)C(F)(F)C(F)(F)C(F)F)Cn1c2ccccc2c2ccccc21 (configuration not stated) ?
VDR inhibitor: -9%

What do the screens show for `CCOc1ccc(-c2cc3cc(OC)c(OC)cc3c(C)n2)cc1`?
VDR inhibitor: -11%

How did O=C(CSc1nnc(NCc2ccccc2)s1)NC1CCS(=O)(=O)C1 (configuration not stated) do in these assays?
VDR inhibitor: -11%

How did COc1cccc(/C(O)=C/C(=O)C(=O)Nc2ccc(S(=O)(=O)NC(C)=O)cc2)c1 do in these assays?
VDR inhibitor: -12%

What do the screens show for `CC1CCN(C(=O)c2cc3ccccc3c(=O)o2)CC1`?
VDR inhibitor: -26%

What do the screens show for `Cc1ccc(NC(=O)CCN2C(=O)c3ccccc3C2=O)cc1C`?
VDR inhibitor: -4%

What do the screens show for `CCN(CC)C(=O)N1CCc2ccccc21`?
VDR inhibitor: -20%

How did COc1cccc(CN(C)Cc2nc(Cc3ccccc3Cl)no2)c1 do in these assays?
VDR inhibitor: -8%

Results for COCC(=O)Nc1cc(C(=O)Nc2ccccc2C)ccc1Cl ?
VDR inhibitor: 1%

How did CSc1nc(N(C)NC(=O)c2cccc(C)c2)c2ccccc2n1 do in these assays?
VDR inhibitor: 6%

How did CCC1=C(OC(=O)N(CC)CC)N2C(=O)OC(=NCC3CC3)[C@]2(C)[C@H]2C1=CC[C@H]1C(=O)N(C)C(=O)[C@H]12 do in these assays?
VDR inhibitor: 6%

Compounds shown so far with a tert-butyl group, in the order listed:
What do the screens show for `COC(=O)c1ccc(S(=O)(=O)NC(C)(C)C)n1C`?
VDR inhibitor: -20%

What do the screens show for `CC(C)(C)c1ccc(C(=O)C2CCCN(C(=O)CN3CCCC3=O)C2)cc1` (configuration not stated)?
VDR inhibitor: 0%

The listing picks up, starting three compounds before the break.
Results for COCC(=O)Nc1cc(C(=O)Nc2ccccc2C)ccc1Cl ?
VDR inhibitor: 1%

How did CSc1nc(N(C)NC(=O)c2cccc(C)c2)c2ccccc2n1 do in these assays?
VDR inhibitor: 6%

How did CCC1=C(OC(=O)N(CC)CC)N2C(=O)OC(=NCC3CC3)[C@]2(C)[C@H]2C1=CC[C@H]1C(=O)N(C)C(=O)[C@H]12 do in these assays?
VDR inhibitor: 6%

What do the screens show for `CCOC(=O)C1CCN(C(=O)COC(=O)CN(C)S(=O)(=O)c2ccc(NC(C)=O)cc2)CC1`?
VDR inhibitor: -5%

What do the screens show for `C=C1C[C@@]23CCC4[C@@](C)(CCC[C@@]4(C)C(=O)OC)C2CC[C@]1(OC(C)=O)C3` (some centres not stated)?
VDR inhibitor: -25%

Results for COC(=O)Cn1c(Cc2ccccc2)nc2ccccc21 ?
VDR inhibitor: -19%

What do the screens show for `Cc1ccc(Cl)cc1N1CCN(C(=O)c2cnn(C)c2C2CCN(C(=O)OC(C)(C)C)CC2)CC1`?
VDR inhibitor: 2%

What do the screens show for `CCN=C(N/N=C/c1ccc([N+](=O)[O-])cc1)SC`?
VDR inhibitor: -19%

How did Cc1ccc(NS(=O)(=O)c2ccc(-c3cc(C)no3)cc2)c(C)c1 do in these assays?
VDR inhibitor: -2%

Results for CCCCCC(O)(CCN1CCCCC1)c1ccccc1 (configuration not stated) ?
VDR inhibitor: -16%

How did Cc1ncc(N=Nc2ccc(F)cc2)c(-c2ccc(Cl)cc2)n1 do in these assays?
VDR inhibitor: 7%

Results for CCOc1ccc(CCNC(=O)CCCc2nnc3n(CC)c(=O)c4sccc4n23)cc1 ?
VDR inhibitor: -6%

How did COc1ccc(C(=O)Nc2sc(C)c(C)c2CN2CCOCC2)cc1 do in these assays?
VDR inhibitor: -1%

Results for COc1ccc2c(c1)O[C@H](c1ccc3c(c1)OCO3)[C@@H](OC(=O)NC1CCCC1)C2=O ?
VDR inhibitor: -11%

What do the screens show for `Cc1cccc(OCc2nn[nH]n2)c1C`?
VDR inhibitor: 26%

Results for O=C(O)C1C(c2ccccc2)C(C(=O)Oc2ccc(O)cc2)C1c1ccccc1 (configuration not stated) ?
VDR inhibitor: -1%

What do the screens show for `CCc1nnc2c(Nc3cccc(F)c3)nc3ccc(C(=O)c4ccccc4)cc3n12`?
VDR inhibitor: 2%

Results for Cc1cc(C)nc(NC(=NCc2ccc3c(c2)OCO3)NC(=O)Nc2ccccc2)n1 ?
VDR inhibitor: 7%

Results for Oc1ccc(Nc2ccnc3cc(Cl)ccc23)cc1 ?
VDR inhibitor: -3%

How did Cc1cc(C)c(OCC(=O)OCC(=O)NCC2CCCCC2)c(C)c1 do in these assays?
VDR inhibitor: 5%

What do the screens show for `Cc1ccc(N(CC(=O)NC2CCCCC2)C(=O)c2ccc(C)s2)cc1`?
VDR inhibitor: -7%

How did CN(C)/C=C/C(=O)c1ccc([N+](=O)[O-])c(CS(=O)(=O)c2ccccc2)c1 do in these assays?
VDR inhibitor: 1%

How did COc1ccc(/C=N/NC(=O)c2ccc3c(c2)OCO3)cc1 do in these assays?
VDR inhibitor: 17%

How did COc1cccc(OC)c1C(=O)N1CC(C)OC(C)C1 (configuration not stated) do in these assays?
VDR inhibitor: -18%

What do the screens show for `O=C1/C(=C/c2ccccc2)Nc2ccccc21`?
VDR inhibitor: -1%

Results for O=C(CSc1ccccc1)N1CCN(S(=O)(=O)c2ccccc2)CC1 ?
VDR inhibitor: -29%

How did O=C(Cc1ccccc1)NCCS(=O)(=O)N1CCN(c2cccc(Cl)c2)CC1 do in these assays?
VDR inhibitor: -7%

Results for COc1ccc(N=C2NC(=O)/C(=C/C=C/c3ccccc3)S2)cc1 ?
VDR inhibitor: 5%

How did Cc1ccccc1C(=O)NNC(=O)c1ccc(Br)cc1 do in these assays?
VDR inhibitor: 3%

How did COc1cccc2c1OC1(C)CC2NC(=O)N1c1cccc(C(=O)N2CCN(c3ccccn3)CC2)c1 (configuration not stated) do in these assays?
VDR inhibitor: 9%

Results for O=S1(=O)C=CC(N2CCOCC2)C1 (configuration not stated) ?
VDR inhibitor: 10%

What do the screens show for `O=C1c2cccnc2Oc2ccc(Cl)cc2N1Cc1ccc(F)cc1`?
VDR inhibitor: 0%

What do the screens show for `Cc1nc2ccc(S(=O)(=O)N(C)CC(=O)NC(C)c3ccccc3)cc2s1` (configuration not stated)?
VDR inhibitor: -4%

What do the screens show for `Cc1cc(C)c(C(=O)/C=C/c2ccc(C(C)C)cc2)c(=O)[nH]1`?
VDR inhibitor: inconclusive

How did CN(C)S(=O)(=O)c1ccc(C(=O)NCCSc2ccc(Br)cc2)cc1 do in these assays?
VDR inhibitor: -4%

Results for CC(=O)NCCCCCCNC(C)=O ?
VDR inhibitor: 5%

How did CCOC(=O)C1=NN(c2ccccc2)C2C(=O)N(c3ccccc3OC)C(=O)C12 (configuration not stated) do in these assays?
VDR inhibitor: inconclusive

What do the screens show for `CCc1noc(C)c1C(=O)N(CCOC)c1c(N)n(CC(C)C)c(=O)[nH]c1=O`?
VDR inhibitor: 16%

What do the screens show for `O=C(c1ccccc1)N1CCOC(O)(c2ccccc2)C1c1ccccc1` (configuration not stated)?
VDR inhibitor: 14%

What do the screens show for `CC(=O)c1cccc(NC(=O)CN2C(=O)NC(C)(c3ccc4c(c3)OCCCO4)C2=O)c1` (configuration not stated)?
VDR inhibitor: 9%

Results for N#CCCN(C(=O)CSc1nc2ccccc2c(=O)[nH]1)c1ccc(F)cc1 ?
VDR inhibitor: -6%

Results for COC(=O)c1cccc(-n2nnnc2SCC(=O)Nc2cc(C)on2)c1 ?
VDR inhibitor: 0%

What do the screens show for `CC1(C)CC(=O)C(Sc2nnc(-c3ccc(NS(C)(=O)=O)cc3)n2Cc2ccco2)C(=O)C1`?
VDR inhibitor: 7%

What do the screens show for `CNC(=O)NC(=O)C(c1ccccc1)N(C)CC1COc2ccccc2O1` (configuration not stated)?
VDR inhibitor: -8%

What do the screens show for `COc1ccc(C2=Nn3c(nnc3-c3ccccc3Cl)SC2)cc1OCC1CC1`?
VDR inhibitor: -21%

Results for COc1ccc(Cc2cnc(N)nc2N)cc1OC ?
VDR inhibitor: -13%

Results for CC(C)(C)[C@@H]1C=C(C(N)=O)O[C@H](OCc2ccc(CO)cc2)C1 ?
VDR inhibitor: -7%

Results for COc1ccc(-c2cc(=O)c3ccc(F)cc3[nH]2)cc1 ?
VDR inhibitor: 18%

How did O=C(CCSCc1ccc(Cl)cc1)NCc1ccco1 do in these assays?
VDR inhibitor: 4%

What do the screens show for `O=C(Cc1ccc([N+](=O)[O-])cc1)N1CCc2ccccc2C1`?
VDR inhibitor: -14%

How did O=C(CSc1nnc2ccccn12)NCCc1ccc(F)cc1 do in these assays?
VDR inhibitor: 5%

Results for CC(C)COc1ccc(C(=O)Nc2nnc(S(=O)(=O)N(C)Cc3ccco3)s2)cc1 ?
VDR inhibitor: 14%

Results for CCOC(=O)C1(C)NC(c2cccs2)C2C(=O)N(c3ccc(OC)cc3)C(=O)C21 (configuration not stated) ?
VDR inhibitor: 32µM*

How did COc1cc(NC(=O)CSc2nccc(C)n2)c(C(=O)O)cc1OC do in these assays?
VDR inhibitor: -10%

Results for O=C(c1ccc(Cl)cc1)N1CCC2CC1c1cc(-c3ccccc3)ccc12 (configuration not stated) ?
VDR inhibitor: -18%

What do the screens show for `COCc1cc(C)nc2sc(C(=O)Nc3ccccc3O)c(N)c12`?
VDR inhibitor: 3%

What do the screens show for `CCCOc1ccc2oc(=O)c3c(c2c1)CCCN3C(=O)CN1CCN(c2ncccn2)CC1`?
VDR inhibitor: -4%

How did CC(=O)Nc1ccc2nc(-c3cccn3C)[nH]c2c1 do in these assays?
VDR inhibitor: 4%
